# From PubChem BioAssay
# CSC inhib – cancer stem cell inhibition | cancer stem cell-like cells viability, luminescence | inhibition, % at 7.5 µM | hit rate 1.1% among 300,000;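 active means mean at 75% or more and at least half the replicates too; inconclusive means mean and replicates disagree; tested in HMLE shEcad cells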;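 further: 0% = median of negative and 100% = median of positive control wells; the first replicate is given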
# Env fusion inh – blocks HIV Env-driven cell-cell fusion; HeLa-JRFL Env/CEM21 cell fusion, luciferase; inhibition, % at 12.3 µM; hit rate 1.1% among 360,000;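 active means mean replicate inhibition score of at least 50 and every replicate individually at or above 50; inconclusive means only one of the two criteria met; inactive means mean below 50 and not all replicates reaching 50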;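 further: 0% = plate neutral controls and 100% = maraviroc near 300 nM; one replicate is shown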
# eIF4H FP inh – inhibitors of RNA binding by human eIF4H; Q15056; eIF4H fluorescence polarization binding assay; inhibition, % at 35 µM; hit rate 0.94% among 290,000; AID 2012;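 active means 50% or more with normal probe brightness, or confirmed in later tests; inconclusive means above 50% with abnormal brightness, or retests that disagree; inactive means below 50% or failed in later tests; about a fifth of its hits are not listed in these tables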;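 further: calls also rest on retests at 20 µM and on dose response follow-up; 0% = protein and probe with vehicle and 100% = probe without protein; strong numbers were not always called active; many hits fall short of the cut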
# Rce1 inh – yeast Ras-converting enzyme inhibition; calls only; yeast membranes, quenched prenylated peptide cleavage fluorescence; AID 2563; Q03530; hit rate 0.27% among 290,000;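 active means fall in fluorescence gain of 50% or more versus controls, with final raw signal at or below 3038400; inconclusive means same 50% fall but final raw signal above 3038400; inactive means fall in fluorescence gain under 50%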;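 further: plate controls were neutral control wells for no effect and wells lacking membranes for full effect; tested at 10 µM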
# Target sequence (Q03530 whole entry, looked up): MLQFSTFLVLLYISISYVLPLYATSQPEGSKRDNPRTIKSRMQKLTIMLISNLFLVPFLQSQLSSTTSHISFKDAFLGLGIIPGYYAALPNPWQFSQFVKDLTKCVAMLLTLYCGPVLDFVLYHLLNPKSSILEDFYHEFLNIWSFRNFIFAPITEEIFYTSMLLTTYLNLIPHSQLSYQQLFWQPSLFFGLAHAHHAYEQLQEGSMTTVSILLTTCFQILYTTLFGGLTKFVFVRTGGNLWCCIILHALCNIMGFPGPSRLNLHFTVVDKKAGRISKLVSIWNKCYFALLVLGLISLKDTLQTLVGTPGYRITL
# MT1-MMP act inh – inhibitors of human MT1-MMP activation. P50281. HT1080 RFP-PRO-GFP cells, GFP/RFP ratio fluorescence, overnight; percent of plate control window, DMSO zero. GFP/RFP ratio change, % at 20 µM. hit rate 0.061% among 360,000. AID 651647;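 active means GFP/RFP ratio change of at least 30% with cell ATP level not reduced by more than half and red fluorescence within 50% of control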; further: strong numbers were not always called active
#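 Test system: HT1080 RFP-PRO-GFP cells; Benchmarks: DMSO and RFP-L50D-GFP cell wells; Timing: cells overnight before dosing, compound overnight, 37 °C, 5% CO2; Compound: one 20 µM compound dose with 1% DMSO; Read-out: GFP/RFP fluorescence ratio.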
# PABP polyA inh – blocks human PABP binding to poly(A) RNA; fluorescence polarization; P11940; inhibition, % at 35 µM; hit rate 1% among 290,000; AID 2014;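 active means 50% or more with normal probe brightness, or confirmed in later tests; inconclusive means above 50% with abnormal brightness, or retests that disagree; inactive means below 50% or failed in later tests; about a fifth of its hits are not listed in these tables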;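 further: calls also rest on retests at 20 µM and on dose response follow-up; controls were probe without protein and protein plus probe with vehicle; some compounds called inactive have numbers as strong as hits; many hits fall short of the cut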
# Target sequence (P11940 whole entry, looked up): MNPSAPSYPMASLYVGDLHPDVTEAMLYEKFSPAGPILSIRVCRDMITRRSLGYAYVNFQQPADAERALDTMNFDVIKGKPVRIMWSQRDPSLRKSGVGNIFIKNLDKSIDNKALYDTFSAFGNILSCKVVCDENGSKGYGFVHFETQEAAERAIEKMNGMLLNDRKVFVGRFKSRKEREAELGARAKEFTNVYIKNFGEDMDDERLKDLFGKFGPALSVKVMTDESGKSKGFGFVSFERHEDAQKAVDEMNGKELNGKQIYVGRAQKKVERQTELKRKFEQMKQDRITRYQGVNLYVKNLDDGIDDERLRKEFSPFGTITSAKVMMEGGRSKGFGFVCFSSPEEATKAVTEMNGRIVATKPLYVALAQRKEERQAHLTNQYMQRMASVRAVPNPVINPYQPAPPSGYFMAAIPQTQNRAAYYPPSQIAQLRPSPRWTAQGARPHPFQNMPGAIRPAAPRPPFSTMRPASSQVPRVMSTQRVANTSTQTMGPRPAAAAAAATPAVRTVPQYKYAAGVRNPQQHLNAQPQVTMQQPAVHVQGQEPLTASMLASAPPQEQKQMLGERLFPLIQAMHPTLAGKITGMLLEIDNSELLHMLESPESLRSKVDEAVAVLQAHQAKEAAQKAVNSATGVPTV
# UUG fidelity – alters start codon recognition fidelity in yeast; hit rate 0.13% among 350,000; S. cerevisiae UUG-firefly luciferase reporter, luminescence/redox ratio; activity score, % at 18.7 µM;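 active means replicate mean at a twofold rise or more, about +100% in these data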;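 further: firefly luciferase made from a UUG start codon reports start codon fidelity; reporter light over untreated wells divided by growth signal over untreated wells; some hits fall short of that in this replicate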
# eIF4H FP inh retest – second read-out of eIF4H FP inh, no call of its own (marks repeat the call); inhibition, %; compound at 20 µM; confirmation average;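 mean of two retest wells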
# PABP polyA inh retest – also measured in PABP polyA inh; calls as there; inhibition, %; compound at 20 µM; confirmation repeats;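 mean of two retest wells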
# MT1-MMP act inh RFP – further read-out of MT1-MMP act inh, marked with its call; RFP signal change, %; measured here: RFP expression control read;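 0 = vehicle wells; hits needed this value within 50% of zero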
# The depositor's hits bear a star; i = inactive; ? = inconclusive; . = not tested or not shown; & = joins results of further samples; [ ] = another dose, or the depositor's remark. Some of the compounds tested; count on the stated rates, not on these rows.
SMILES,CSC inhib,Env fusion inh,eIF4H FP inh,Rce1 inh,MT1-MMP act inh,MT1-MMP act inh RFP,PABP polyA inh,UUG fidelity,others
C=CCCC(=O)NC1CCCc2c1cnn2-c1ccccc1F (stereo not drawn),-14,-1,-6,i,5,-4,2,-6,
O=C(COc1ccc(Cl)cc1)Nc1cc2c3c(c1)CC(=O)N3CCC2,-4,3,.,i,-7,-5,.,-13,
Cc1cc([N+](=O)[O-])ccc1NC(=O)c1cc2ccccc2o1,2,-159,-10,i,4,0,2,-8,
COC(=O)c1nn(-c2ccccc2)c(Cl)c1/C=N/OCc1ccc(C)cc1,37,.,-2,i,-7,-8,0,-19,
CC1(C)Cc2ccccc2-c2nnc(SCc3ccc(C#N)cc3)n21,-15,-127,0,i,0,-6,-2,-10,
CCC1=C/C(=C\c2ccc3c(c2)OCO3)C(=O)S1,5,.,57,.,.,.,18,.,eIF4H FP inh retest=48;PABP polyA inh retest=27
O=S(=O)(CCCc1ccccc1)c1ncn[nH]1,8,.,-6,i,2,5,-2,-26,
CC(C)CN(CC(C)C)C(=O)CN1c2cccc3cccc(c23)S1(=O)=O,.,8,-15,i,8,0,1,-8,
CC[C@]1(C(=O)OC)[C@H]2C(=O)N(Cc3ccccc3)C(=O)[C@H]2[C@H]2CN=C(SCc3ccc(C#N)cc3)N21,.,88*,.,.,5,0,.,-1,
Cc1oc(-c2cccc(Br)c2)[n+]([O-])c1C,-16,-8,-1,i,2,6,2,.,
COc1ccc2cc(CN(CC3COCCO3)S(=O)(=O)c3ccccc3)c(=O)[nH]c2c1 (stereo not drawn),.,.,1,i,.,.,-2,.,
CN(C(=O)C12CC3CC(CC(C3)C1)C2)C1CCS(=O)(=O)C1 (stereo not drawn),-11,.,-10,i,2,3,-11,-6,
CC(=O)N1CCOc2ccc(S(=O)(=O)NCCc3cccc(C)c3)cc21,1,6,-8,i,1,2,-3,2,
CC(C)(C)c1ccc(C(=O)N/N=C2\C3CN4CCN(C3)CC2(c2ccccc2)C4)cc1,1,21,-4,i,0,1,-6,.,
CCSc1nc(O)c(C(c2cccc(OC)c2)c2c(O)nc(SCC)[nH]c2=O)c(=O)[nH]1,5,4,9,.,-3,3,8,-6,
COc1ccc(N(C)S(=O)(=O)c2cccc(C(=O)OCC(=O)NCc3ccccc3OC)c2)cc1,1,-26,2,i,3,1,-12,5,
COc1ccc(OC)c(S(=O)(=O)N2CCCC(C(=O)NCc3cccnc3)C2)c1 (stereo not drawn),-6,8,5,i,-1,-1,0,-4,
CCOC(=O)N1CCN(CC(=O)Nc2cc(OC)c(OC)cc2C#N)CC1,-8,-19,31,i,1,3,42,.,
C/C(=N\NS(=O)(=O)c1ccc(Cl)c([N+](=O)[O-])c1)c1ccc(C)o1,.,16,22,i,15,14,13,-6,
Cc1nc2ccccc2c2oc(C(=O)NCCCN3CCCC3=O)cc12,-14,-325,-1,i,2,-1,-13,-15,
CC(=O)c1cccc(N(CC(=O)NC2CCCCC2)C(=O)c2csnn2)c1,-17,3,-18,i,-3,3,-5,-16,
CCN(CC)CCNc1ncnc2c1sc1nc(N3CCOCC3)c3c(c12)CCCC3,0,0,-10,i,-3,-6,5,.,
COc1ccc(C(=O)N/N=C/c2ccc(SC)cc2)cc1,22,-5,-2,i,6,5,7,.,
COc1ccc(Nc2nnc(SCC(=O)c3cc(C)n(CC4CCCO4)c3C)s2)cc1 (stereo not drawn),10,-104,-1,.,-6,-2,0,0,
COc1ccc(-c2csc(N(C)C(=O)c3ccco3)n2)cc1,11,-28,-1,i,1,2,0,-6,
COc1ccc(-c2cc(C#N)nc(N3CCN(c4ccccc4)CC3)n2)cc1,3,.,-3,i,5,-1,-3,25,
C#Cc1ccc([C@H]2C=C(C(=O)N3CCOCC3)O[C@@H](OCC)[C@@H]2CCCO)cc1,-12,2[16.7 µM],-7,i,-10,1,-5,11&2,
CCOc1ccc(C(=O)Nc2nnc(NC(=S)Nc3ccccc3)s2)cc1,22,-7,-4,i,7,2,-10,-33,
Cc1cc2ccccc2c(=O)n1CC(=O)Nc1ccc2c(c1)OCCO2,-1,.,-10,i,2,-1,-2,-11,
CCOCCCNC(=O)c1ccc(NC(C)=O)cc1,1,.,-2,i,5,2,9,-10,
N#CC1=C(N)Oc2c(ccc3ccccc23)C1c1cccs1 (stereo not drawn),53,.,22,i,.,.,17,.,
C[C@H](CO)N1C[C@H](C)[C@@H](CN(C)C(=O)Nc2ccc(C(F)(F)F)cc2)Oc2ccc(NC(=O)Nc3ccccc3)cc2C1=O,31,12[16.7 µM],.,.,8,2,.,9&3,
COC(=O)c1cc(S(=O)(=O)NCC(C)c2ccccc2)c[nH]1 (stereo not drawn),.,-22,.,.,-4,-5,.,2,
Cn1cc(CCC(=O)N2CCCC(Nc3ccc(F)cc3)C2)cn1 (stereo not drawn),10,7,-4,i,-2,0,-3,-18,
Cc1ccc2nsnc2c1N(S(C)(=O)=O)S(C)(=O)=O,1,.,-2,i,7,3,-4,-4,
COCCN(Cc1cc2cc3c(cc2nc1Cl)OCO3)C(=O)c1cccc(C)c1,15,-3,4,i,-2,-13,16,22,
Cc1ccn2c(=O)nc(SCC(=O)Nc3cccc4ccccc34)nc2c1,0,2,.,i,-1,3,.,-5,
CCC(C)NC(=O)c1cn(C)c(=O)c2cc(OC)c(OC)cc12 (stereo not drawn),-8,-78,-13,i,3,8,-16,-22,
CC(=O)c1c(C)[nH]c(C(=O)Nc2cccc(S(=O)(=O)N3CCCC3)c2)c1C,-25,1,.,.,20,-5,.,-13,
CC(C)(C)n1ncc2c(=O)n(CC(=O)Nc3ccc4c(c3)OCCO4)cnc21,.,.,-3,i,6,2,5,8,

# Continued; it opens with the three that closed the last part.
SMILES,CSC inhib,Env fusion inh,eIF4H FP inh,Rce1 inh,MT1-MMP act inh,MT1-MMP act inh RFP,PABP polyA inh,UUG fidelity,others
CCC(C)NC(=O)c1cn(C)c(=O)c2cc(OC)c(OC)cc12 (stereo not drawn),-8,-78,-13,i,3,8,-16,-22,
CC(=O)c1c(C)[nH]c(C(=O)Nc2cccc(S(=O)(=O)N3CCCC3)c2)c1C,-25,1,.,.,20,-5,.,-13,
CC(C)(C)n1ncc2c(=O)n(CC(=O)Nc3ccc4c(c3)OCCO4)cnc21,.,.,-3,i,6,2,5,8,
Cc1ccc(/C=C2\SC(=S)N(CCC(=O)NNS(=O)(=O)c3ccccc3)C2=O)cc1,-7,24,13,i,3,2,-16,7,
COc1ccc(C(=O)Nc2ccccc2[N+](=O)[O-])cc1S(=O)(=O)N1CCOCC1,-8,-9,0,i,0,1,8,14,
O=C(Nc1cccc(C(F)(F)F)c1)C1CCCN(c2ncccn2)C1 (stereo not drawn),-19,22,-8,i,8,-6,-1,-16,
CCCCCOc1ccc(Cn2ccnc2)cc1[N+](=O)[O-],40,16,4,i,0,-11,-4,-16,
O=C(NCc1cccs1)c1cc(-c2ccc(O)cc2)on1,47,-46,5,i,1,1,10,.,
CCOC(=O)CC1=NN(c2ccccc2)C(=O)/C1=C\c1ccc(OC)cc1OC,-4,-10,-5,i,3,0,-5,.,
O=C1C2CC=CCC2C(=O)N1n1cnnc1 (stereo not drawn),-9,7,4,i,4,9,-16,-14,
COc1cccc(CN2CCC(C(=O)Nc3ccc(-c4cccc(C)c4)cc3)CC2)c1O,38,18,-13,i,10,-5,0,-11,
CCCSc1nnc(Cn2c(=O)sc3ccccc32)n1C,-8,-12,0,i,-1,-1,1,-11,
CS(=O)(=O)N1CCN(C(=O)Cc2ccccc2)CC1,6,.,17,i,3,5,16,-15,
O=S(=O)(NC1CC2CCC1C2)c1ccc2c(c1)OCCO2 (stereo not drawn),-7,.,2,i,3,0,-7,2,
CC(C)CNC(=O)CSc1nnc2ccccn12,-8,-5,-12,i,-1,1,-14,.,
O=C(O)CC/C(=N/NC(=O)c1cn(-c2ccccc2)nc1-c1ccccc1)C(=O)O,10,7,3,i,5,9,6,-33,
Cc1cc(Br)ccc1NC(=O)CN(C)C(=O)COc1cccc2c1OC(C)(C)C2,-3,-93,.,i,6,1,.,4,
CCCC(=O)N(Cc1cc(=O)[nH]c2ccccc12)c1ccccc1OC,12,11,4,i,-4,-1,-11,0,
C=CCn1c(CCNC(=O)c2ccccc2F)nnc1SCc1nc2ccccc2c(=O)[nH]1,-22,.,-12,i,-10,-1,3,-10,
Cc1ccc(NC(=O)CCC(=O)OCCCC(F)(F)C(F)(F)F)cc1,11,.,-2,i,4,2,10,2,
Nn1c(Cc2ccc(Br)cc2)n[nH]c1=S,-4,12,-9,i,1,0,7,.,
Cc1cc(C)c(S(=O)(=O)Nc2ccc3c(c2)CCC3)c(C)c1,46,31,3,i,7,-19,0,.,
O=C(COc1cc(F)ccc1[N+](=O)[O-])Nc1ccc(N2CCCCC2)cc1,-9,-15,.,i,4,-9,.,-4,
O=C(Cn1cc(S(=O)(=O)Cc2cccc([N+](=O)[O-])c2)c2ccccc21)N1CCOCC1,0,7,-4,i,0,0,3,-7,
O=C(CNS(=O)(=O)c1ccc(Br)s1)N1CCCC1,-13,.,-10,i,2,1,-1,2,
O=c1ccc(S(=O)(=O)N2CCCC2)cn1Cc1nc(-c2ccc(F)cc2)no1,.,10,.,.,-1,-3,.,-20,
Cc1ccc(C2Nc3ccccc3NC3=C2C(=O)CC(C)(C)C3)c(O)c1 (stereo not drawn),6,-19,?,.,5,0,43,-13,
COc1ccccc1OCCNC(=O)CCC(=O)N1CCOCC1,.,8,.,.,-5,-5,.,-7,
COc1ccc(S(=O)(=O)N2CCCCC2)cc1C(=O)NC1CCS(=O)(=O)C1 (stereo not drawn),.,31,.,.,4,6,.,6,
CCC(CO)NCC(O)COCc1ccc2c(c1)OCO2 (stereo not drawn),-11,9,2,i,0,6,-7,.,
O=C(CC1(CC2=NS(=O)(=O)c3ccccc3N2)CCCC1)NCCc1ccccc1,-8,-16,3,i,1,-4,-4,-1,
N#Cc1cc2ccccc2nc1SCc1cccnc1,.,.,-4,i,0,0,7,.,
Cn1nnnc1Sc1ncnc2scc(-c3ccc(C#N)cc3)c12,44,-270,.,.,-3,-29,.,-15,
O=C(O)c1cc(NC(=O)C2CCCO2)cc(NC(=O)C2CCCO2)c1 (stereo not drawn),-12,.,-4,i,23,0,0,.,
O=C(Nc1ccccc1C(=O)O)c1cccc(NC(=O)c2ccccc2Cl)c1,-5,-65,9,i,-1,2,6,-3,
CCOC(=O)Cc1csc(NC(=O)c2c(-c3ccccc3)noc2C)n1,-6,.,-5,i,14,13,4,-7,
COc1cc(/C=C2\S/C(=N/S(=O)(=O)c3ccccc3)NC2=O)c([N+](=O)[O-])cc1OC,11,-33,44,i,6,11,-2,-16,
NS(=O)(=O)c1ccc(CCNC(=O)CNCCc2ccccc2)cc1,-7,17,4,i,1,5,4,6,
CCNc1c(NCC)c(=O)c1=O,-17,-6,-5,i,3,5,-1,.,
O=C(C1=C[C@H](C2CC2)C[C@H](OCCCCO)O1)N1CCN(Cc2ccccc2)CC1,-13,-5,1,i,-3,2,-9,-9,
COc1cccc(OCCSc2nc(N)cc(N)n2)c1,5,.,-4,i,-1,-13,4,-29,
COc1ccccc1CN1CC(C(=O)NCc2nc3ccccc3n2C)CCC1=O (stereo not drawn),-14,-10,-4,i,-4,-2,5,11,
